HPGD block: qHTS Assay for Inhibitors of HPGD (15-Hydroxyprostaglandin Dehydrogenase); purified HPGD, NADH fluorescence kinetic, PGE2 substrate; 15-hydroxyprostaglandin dehydrogenase [NAD(+)] (Homo sapiens), P15428; 4.3% of 150,000 active; Potency, µM, for inactives: at the top dose activity change, negative = inhibition, usual class: inhibitors; active = well fitted inhibition curve with a large enough effect (not every such curve was filed as active); inconclusive = small, poorly fitted or top-dose-only effect, or another doubt; inactive = no such curve, though single readings can be large or run the other way;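 further: top concentration of the series not given in the record; plate controls included wells without enzyme; inactives centre near -10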
Target sequence (P15428 whole entry, looked up): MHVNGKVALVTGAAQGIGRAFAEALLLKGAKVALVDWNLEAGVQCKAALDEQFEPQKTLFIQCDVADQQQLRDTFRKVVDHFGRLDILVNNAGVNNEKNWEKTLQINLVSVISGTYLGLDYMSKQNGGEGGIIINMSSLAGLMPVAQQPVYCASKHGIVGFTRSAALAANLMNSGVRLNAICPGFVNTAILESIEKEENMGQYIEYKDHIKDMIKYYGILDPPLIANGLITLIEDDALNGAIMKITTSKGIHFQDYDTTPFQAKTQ
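20 nM HPGD preincubated 15 min at room temperature with compound in 50 mM Tris-HCl pH 8, 0.01% Tween 20. Started with 1 mM NAD+ and 30 uM prostaglandin E2; NADH fluorescence (360/450 nm) read 5 times over 30-s intervals, last minus first.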
Starred values were filed as active, the others as inactive; ? = inconclusive; [ ] = another dose, or the depositor's remark. On the % scale 0 is the no-effect control and ±100 the full control effect; potency means the concentration at half of the fitted maximal effect. Some of the compounds tested; rates above refer to the full screens.

entry	Structure	HPGD block
1	Cc1nn(CCO)c(C)c1Oc1ccccc1O	-3.4%
2	CC(C(=O)NCc1ccccc1)N(CCN1CCOCC1)C(=O)c1snc(C(N)=O)c1N (stereo unspecified)	-18.6%
3	CCOC(=O)c1[nH]c2ccccc2c1CCCN1C(=O)c2ccccc2C1=O	-0.3%
4	Cc1ccc(C2N(c3ccccc3)C(=S)N3CCCN23)cc1 (stereo unspecified)	-4.2%
5	Cc1oc(C2CC2)cc1C(=O)O	5.7%
6	CN1/C(=C\C(=O)c2ccccc2Cl)c2ccccc2CC1(C)C	17.8µM*
7	COc1ccc(NC(=O)CSc2nnc(-c3ccccc3C)n2C)cc1	-2.3%
8	CC(C)Cn1c(SCC(=O)NC(=O)Nc2ccc3c(c2)OCCO3)nc2ccccc2c1=O	-10.0%
9	CCc1sc(NC(=O)COC)nc1-c1ccccc1	?
10	CC(C)(C)c1nnc(NC(=O)C2CCN(c3ncccn3)CC2)s1	-4.3%

Reformatted field by field: 2 of the compounds above
1) Cc1nn(CCO)c(C)c1Oc1ccccc1O
  HPGD block: -3.4%

2) CC(C(=O)NCc1ccccc1)N(CCN1CCOCC1)C(=O)c1snc(C(N)=O)c1N (stereo unspecified)
  HPGD block: -18.6%

Further results:
entry	Structure	HPGD block
11	CC(=O)Nc1cc2c(nc1C)nc(C)n2Cc1ccc(Br)cc1	?
12	CC1=C(C(=O)OCC(Br)(Br)Br)C(c2ccc(Br)cc2)NC(=O)N1CCCC(=O)O (stereo unspecified)	-1.1%
13	CCNC(=O)NC(=O)CSc1cccc(C(F)(F)F)c1	-10.7%
14	Nc1cccc(CCc2nc3cc4ccccc4cc3[nH]2)c1	-1.4%
15	COC(=O)c1ccc(C(=O)OC)c(NC(=O)CN2CCN(c3ccccc3OC)CC2)c1	-20.2%
16	C=CCN(C(=O)CNC(=O)c1ccco1)C(C(=O)NC1CCCCC1)c1ccccc1 (stereo unspecified)	-6.4%
17	COc1ccc(NC(=S)N2CCN(CCN=CC3=C(O)CC(c4ccccc4)CC3=O)CC2)cc1 (stereo unspecified)	-7.2%
18	Cc1cc(C(=O)NCc2ccco2)no1	-6.0%
19	COc1cccc(/C=N/NC(=O)c2ccc(-c3ccccc3)cc2)c1O	-13.4%
20	Cc1ccc(OCC(=O)Nc2sc3c(c2C#N)CCC3)cc1	-5.3%
21	COc1cccc(CC(=O)Nc2nccs2)c1	-15.9%
22	CC(C)c1ccc(N2C(=O)CC(Sc3nc4ccccc4o3)C2=O)cc1 (stereo unspecified)	?
23	Cc1cc(NC(=O)Cc2cccs2)no1	?
24	O=C1CCC(=O)N1CCOP1(=O)COc2ccccc2OC1	-11.5%
25	O=C(C1CCN(S(=O)(=O)c2ccccc2)CC1)N(CCc1ccccc1)Cc1ccco1	-4.0%
26	COC(=O)Cn1cc(/C=N/NC(=O)COc2cccc3cccnc23)c2ccccc21	-14.3%
27	COCCn1nnnc1C(c1ccccn1)N1CCN(c2cc(C)ccc2C)CC1 (stereo unspecified)	-12.6%
28	CCOc1ccc(OCC)c(NC(=O)C2CCCN(S(=O)(=O)c3cnc[nH]3)C2)c1 (stereo unspecified)	-5.2%
29	O=C(Nc1nccs1)c1ccccc1[N+](=O)[O-]	-9.9%
30	O=C(Nc1nnc(-c2ccc3c(c2)CCCC3)o1)c1ccc(Cl)cc1Cl	-23.6%
31	CC(=O)NC(C)c1nc2ccccc2n1Cc1ccccc1F (stereo unspecified)	1.8%
32	COc1ccc([N+](=O)[O-])cc1N	-9.7%
33	Cc1ccc(/C=N\Nc2nc3ccc(Cl)cc3[nH]2)o1	-13.4%
34	COC(=O)c1cccc(NC(=O)CSc2nnc(COc3ccccc3)n2C)c1	-21.3%
35	CC(C)NC(=O)c1ccc2c(c1)N(CC(=O)N1CCOCC1)C(=O)C(C)(C)O2	1.2%
36	Cc1nc(NC(=O)c2ccccc2)sc1-c1csc(Nc2ccc(Cl)cc2)n1	-22.7%
37	O=C(CCCC(=O)N(CC(=O)NC1CCCCC1)CC1CCCO1)Nc1ccccn1 (stereo unspecified)	-1.1%
38	O=C(N1CCN(c2ccccn2)CC1)N1c2ccccc2Sc2ccccc21	-10.0%
39	CCCCC(=O)Nc1nn(C)c2nc3c(C)cccc3cc12	?
40	CCC(=O)N/N=C(\C)CC(=O)Nc1ccc(Cl)cc1	-11.8%
41	O=S(=O)(c1ccc(C2CCCCC2)cc1)N1CCOCC1	-22.7%
42	O=Cc1cn(CC(=O)NCC2CCCO2)c2ccccc12 (stereo unspecified)	-3.2%
43	Cc1cccc(NC(=O)c2cc(=O)c3ccccc3o2)n1	-3.3%
44	CC1=NOC2(C1)/C(=N/O)CCC/C2=N\O (stereo unspecified)	-6.5%
45	CCN1CCCC1CNC(=O)c1cc2c(C)nc3ccccc3c2o1 (stereo unspecified)	?
46	O=C(COc1cccnc1[N+](=O)[O-])N1CCN(S(=O)(=O)c2ccccc2)CC1	-12.2%
47	O=C(/C=C/c1ccc(Cl)cc1Cl)NC(=S)Nc1ccc(CN2CCOCC2)cc1	-17.2%
48	C=CCOc1ccc(/C=N/NC(=O)C(C)Sc2ccccn2)cc1OC (stereo unspecified)	-15.6%
49	CCCn1c(O)c(N=Nc2ccc3ccccc3n2)c2ccccc21	-6.0%
50	CCN1C(=O)CC(NNC(=O)c2ccc(Cl)cc2)C1=O (stereo unspecified)	-3.4%
51	Cn1cccc1/C=N/NC(=O)c1ccn[nH]1	-4.7%
52	CCCc1nc2sc3ccccc3c(=O)c2c(=O)n1CCOC	-6.1%
53	Cc1ccc(CSc2nc3ccccc3c(=O)n2CCCC(=O)NCc2ccco2)cc1	-8.6%
54	Cc1cc(C)cc(OCC(=O)NCC2CCCO2)c1 (stereo unspecified)	15.8µM*
55	O=C(CSc1ccc(C(F)(F)F)cc1[N+](=O)[O-])Nc1ccccc1	-12.2%
56	O=C(Oc1ccccc1C(=O)Nc1ccccc1)c1ccccc1Br	-1.1%
57	COc1ccc2cc(CN(CC3CCCO3)S(=O)(=O)c3ccccc3)c(=O)[nH]c2c1 (stereo unspecified)	35.4%[activator]
58	Cc1ccc(C(c2nnnn2CS(=O)(=O)c2ccc(C)cc2)N2CCC(C)CC2)cc1 (stereo unspecified)	-9.8%
59	CS(=O)(=O)N1CCC(C(=O)O)CC1	-8.1%
60	COc1ccc2[nH]c(C)c(CCNC(=S)Nc3cccc(C)c3)c2c1	-21.6%

The list goes on.
entry	Structure	HPGD block
61	CCc1ccc(NC(=O)c2cc(C)on2)cc1	-7.0%
62	COc1cccc(OCC(O)CN2CC(C)CC(C)C2)c1 (stereo unspecified)	-24.2%
63	COc1ccc(O)c(-c2[nH]ncc2C(=O)c2ccccc2)c1	-21.4%
64	COC(=O)c1cccc(NC(=O)C(C)N2C(=O)c3ccccc3C2=O)c1 (stereo unspecified)	-19.1%
65	O=C(Nc1nc(-c2ccc(-c3ccccc3)cc2)cs1)C1=COCCO1	-8.4%
66	O=C(CN1CCN(C2CCCCC2)CC1)Nc1ccccc1N1CCCCC1	-9.5%
67	COC(=O)c1ccc(C(=O)OC)c(NC(=S)N2CCCCC2)c1	-12.0%
68	CCCCc1ccc(C(=O)NC(C(=O)O)C(C)C)cc1 (stereo unspecified)	-3.9%
69	Cc1ccc(N(C(C)C(=O)O)S(=O)(=O)c2c(C)[nH]c(=O)[nH]c2=O)cc1 (stereo unspecified)	-9.6%
70	Cc1cc(C)n(-c2nc3c(c(=O)[nH]c(=O)n3C)n2CCc2ccccc2)n1	-6.4%
71	Cc1ccc(O)c(C2=NCCNC(C(F)(F)C(F)F)=C2)c1	-3.9%
72	Cc1cc2cc(CN(CCCN3CCOCC3)C(=O)NC3CCCCC3)c(=O)[nH]c2cc1C	?
73	CCCNC(=O)c1ccccc1NC(=O)C1COc2ccccc2O1 (stereo unspecified)	-20.6%
74	O=C(NCc1ccccc1)NC1(C(=O)Nc2ccc3c(c2)OCCO3)CCCCC1	-1.7%
75	CCOC(=O)c1c(NC(=O)C2(C)Cc3ccccc3C(=O)O2)sc2c1CCCC2 (stereo unspecified)	?
76	Cc1ccc(-c2noc(CSc3nnc(Cc4cccs4)n3-c3ccccc3)n2)cc1	-11.7%
77	CCCNC(=O)C1CCN(c2ccc(S(=O)(=O)N3CCOCC3)cc2Cl)CC1	15.8µM*
78	Cc1sc2ncn(CC(=O)NCCCC(=O)N3CCN(c4ncccn4)CC3)c(=O)c2c1C	-13.8%
79	Nc1cc(=O)[nH]c(SCc2cccc(Cl)c2)n1	-1.9%
80	Cc1sc2ncn(CC(=O)NCC(=O)N(C)Cc3ccccc3)c(=O)c2c1C	-4.3%
81	O=C(Nc1nccs1)c1ccc(-c2ccc(Cl)cc2Cl)o1	?
82	COc1cc(OCC(N)=O)cc(OC)c1OC	-0.5%
83	Cc1ccc2c(c1)N(CCC(=O)NCC1COc3ccccc3O1)C(=O)CO2 (stereo unspecified)	-12.3%
84	CCN(CC)C(=O)COc1cccc2ccccc12	-19.2%
85	COc1ccc(-n2c(SCC(=O)Nc3cc(C)on3)nc3ccc(O)cc3c2=O)cc1OC	-15.0%
86	O=c1ccc(/C=C/c2ccccc2)nn1Cc1ccccc1Cl	?
87	CCOC(=O)c1sc(NC(=O)c2cccc(S(=O)(=O)N(CC)CC)c2)cc1C	10.6%
88	CC(Sc1n[nH]c(N)n1)C(=O)C12CC3CC(CC(C3)C1)C2 (stereo unspecified)	-15.4%
89	Cc1ccc2[nH]c(O)c(N=NC(=O)C3CC3c3ccccc3)c2c1Br (stereo unspecified)	-7.8%
90	Cc1ccc(C2C(C#N)=C(N)N(c3ncn[nH]3)C3=C2C(=O)CC(C)(C)C3)cc1 (stereo unspecified)	2.2%
91	CCC(C)Sc1nc2c(c(=O)[nH]c(=O)n2C)n1CC(O)COc1cccc2ccccc12 (stereo unspecified)	?
92	Cc1csc(N2CCc3ccccc32)n1	-8.8%
93	CCC1SC(=NC(=O)c2ccc(Cl)c(Cl)c2)NC1=O (stereo unspecified)	-16.8%
94	Nc1nc(SCC(=O)NCCCN2CCOCC2)nc2sc3c(c12)CCC3	-23.8%
95	Cc1ccc(-c2cc3c(n2-c2ccc(C(=O)O)cc2)CCCC3=O)cc1	-21.8%
96	COc1ccc(CCN(C)CCC(=O)Nc2cc(C)ccc2C)cc1OC	?
97	CNC(=O)CSc1nnc(SCCC(=O)O)s1	-13.0%
98	O=S(=O)(N/N=C/c1cn(Cc2ccccc2)c2ccccc12)c1ccccc1	-14.8%
99	Cc1ccc(OC/C(O)=C(\C#N)c2nc3ccccc3s2)cc1	-14.8%
100	COc1ccc2oc(=O)c(C(=O)Oc3ccc(NC(C)=O)cc3)cc2c1	-11.7%
101	Cc1ccc(-c2nc(N)n(S(C)(=O)=O)n2)cc1	-13.8%
102	CCOC(=O)C1CCN(C(=O)c2ccc3c(c2)OCO3)CC1	-23.4%
103	OC(COC(c1ccccc1)c1ccccc1)CN1CCN(c2ccccn2)CC1 (stereo unspecified)	1.6%
104	CC1CCCC(C)N1C(=O)CN1C(=O)C(C)(C)Oc2ccc(C(=O)NC3CCCCC3)cc21 (stereo unspecified)	1.2%
105	Cc1ccc(-c2nc3ccccc3s2)cc1NC(=O)c1ccc2c(c1)OCO2	?
106	COc1ccc(CC(=O)Nc2oc(-c3ccccc3)c(-c3ccccc3)c2C#N)cc1OC	?
107	CC(C)c1cc(C(=O)Nc2ccc3c(c2)OCO3)no1	-6.5%
108	O=C(CN1C(=O)c2ccccc2C1=O)OCC(=O)N1CCc2ccccc2C1	-19.0%
109	O=c1[nH]c2cc3c(cc2cc1CN(Cc1ccc2c(c1)OCO2)Cc1nnnn1CC1CCCO1)OCO3 (stereo unspecified)	?
110	Cc1cc(C)n2nc(SCC(=O)N/N=C/c3cccc(Br)c3)nc2n1	-19.6%

Going on with the list.
entry	Structure	HPGD block
111	Cc1ccc(S(=O)(=O)Cc2sc3ccccc3[n+]2C)cc1	22.4µM*
112	Fc1ccc(/C=C/c2nnc(-c3cccs3)o2)cc1	?
113	COc1cccc(CNC(=O)c2c[nH]n3c(=O)c(Cl)c(C)nc23)c1	?
114	Cc1cccc(N2CCN(S(=O)(=O)c3ccc(S(=O)(=O)N4CCCC4)cc3)CC2)c1C	-0.3%
115	CCOC(=O)CSc1nnc(-c2ccc(S(=O)(=O)N3CCC(C)CC3)cc2)o1	-10.0%
116	Nc1ccccc1N1CCOCC1	-17.8%
117	CCOC(=O)Cc1csc(NC(=O)c2cc3c(s2)CCCC3)n1	-7.8%
118	CC1(C)C2CCC13CS(=O)(=O)NC3C2 (stereo unspecified)	1.3%
119	CC(=O)c1cccc(NC(=S)NC(=O)c2ccccc2Cl)c1	20µM*
120	CC(=O)c1ccc(N2CCN(C(=O)CCS(=O)(=O)c3ccc(C)cc3)CC2)cc1	-15.1%
121	Cc1nn(Cc2ccc(Cl)cc2Cl)c(C)c1NC(=O)c1nc2n(n1)C(C(F)F)CC(C)N2 (stereo unspecified)	-9.3%

Records listed so far marked active in HPGD block.
entry	Structure	HPGD block
6	CN1/C(=C\C(=O)c2ccccc2Cl)c2ccccc2CC1(C)C	17.8µM*
54	Cc1cc(C)cc(OCC(=O)NCC2CCCO2)c1 (stereo unspecified)	15.8µM*
77	CCCNC(=O)C1CCN(c2ccc(S(=O)(=O)N3CCOCC3)cc2Cl)CC1	15.8µM*
111	Cc1ccc(S(=O)(=O)Cc2sc3ccccc3[n+]2C)cc1	22.4µM*
119	CC(=O)c1cccc(NC(=S)NC(=O)c2ccccc2Cl)c1	20µM*

Compound activity deposited in PubChem BioAssay by National Center for Advancing Translational Sciences (NCATS).
